Screens from PubChem.
Menin-MLL FL inh = qHTS Assay for Inhibitors Targeting the Menin-MLL Interaction in MLL Related Leukemias: Competition With Fluorescein Labeled MLL-derived Peptide; Fluorescence polarization, fluorescein-MLL peptide displacement from menin; 290,000 tested, under 10 active; FP activity change, % at 61.4 µM; inconclusive = falling polarisation curve, or a change in total fluorescence; inactive = total fluorescence flat and polarisation flat or rising; no compound was filed as active; the % refers to the polarisation; negative = inhibition;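 further: % of control where 0% means no effect; inhibitors lower the polarisation; unlabelled MLL peptide was the positive control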
D2 ag = Beta-Arrestin HTS for Positive Allosteric Modulators of the Human D2 Dopamine Receptor: Agonists; D(2) dopamine receptor (Homo sapiens), P14416; AID 624465, 2012; DiscoveRx PathHunter D2 beta-arrestin, luminescence, 90 min; 100% = 57 uM dopamine signal; actives 0.084% (n = 360,000); activation, % (test concentration not listed); in the data active = activation above about 40%; inconclusive = about 15% to 40%; inactive = below about 15%; further: compound concentration not given in the record; the text of the record calls up to 30% inactive
Target sequence (P14416 whole entry, looked up): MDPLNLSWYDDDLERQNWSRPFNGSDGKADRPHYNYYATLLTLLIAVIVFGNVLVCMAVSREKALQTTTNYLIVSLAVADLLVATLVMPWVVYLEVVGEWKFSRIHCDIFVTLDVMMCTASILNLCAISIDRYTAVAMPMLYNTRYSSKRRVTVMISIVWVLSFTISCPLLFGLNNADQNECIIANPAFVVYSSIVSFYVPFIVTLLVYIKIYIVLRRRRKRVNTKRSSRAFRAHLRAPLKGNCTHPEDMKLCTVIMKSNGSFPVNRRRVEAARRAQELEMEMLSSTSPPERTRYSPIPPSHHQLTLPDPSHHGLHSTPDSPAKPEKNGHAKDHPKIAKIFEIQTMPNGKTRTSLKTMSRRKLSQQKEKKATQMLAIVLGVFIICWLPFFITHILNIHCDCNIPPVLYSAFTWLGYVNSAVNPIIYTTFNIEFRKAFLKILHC
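Agonist mode: compounds alone added to overnight-plated D2 PathHunter cells for 90 min at 37 C, with 57 uM final dopamine (EC100) defining full response. Beta-arrestin recruitment detected by chemiluminescent reagent, read after 1 h at ambient temperature.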
PINK1 modulator = A Quantitative High throughput Screen to Identify Chemical Modulators of PINK1 Expression; PINK1 immunofluorescence, high-content cytometry, 24 h; Potency, µM (doses to about 76.6 µM), for the others: top-dose activation (PINK1 increase), most hits filed as activators; actives 0.2% (n = 410,000); active = well fitted activation curve with a large enough effect; inconclusive = small, poorly fitted or top-dose-only effect; inactive = flat fitted curve, though single readings scatter; cell line not stated here;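 further: potency means the concentration at half of the fitted maximal effect; % of control where 0% means no effect; nearly all actives have a fitted effect of over 65% in size; a mitochondrial uncoupler was the plate control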
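Stable cell line treated 24 h with compounds at 5 concentrations (CCCP controls), then fixed and immunostained for PINK1 plus nuclear and cell stains; PINK1 immunofluorescence quantified by laser-scanning microplate cytometry.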
Sfp inh = qHTS Assay for Inhibitors of Bacillus subtilis Sfp phosphopantetheinyl transferase (PPTase); Biochemical Sfp PPTase activity, qHTS; actives 3.5% (n = 310,000); Potency, µM, inactives show max response, negative = inhibition, hits mostly inhibitors; 4'-phosphopantetheinyl transferase ffp (Bacillus subtilis), Q9F4F7; active means well fitted inhibition curve with a large enough effect; inconclusive means small, poorly fitted or top-dose-only effect, or another doubt; inactive means no such curve, though single readings can be large or run the other way;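 further: the enzyme is Sfp with the accession as filed and its product quenches rhodamine fluorescence; potency means the concentration at half of the fitted maximal effect; 0% = enzyme reaction without inhibitor and -100% = no enzyme wells; top concentration of the series not given in the record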
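Sfp 15 nM + cpd, 15 min RT; start w/ rhodamine-CoA 5 uM, BHQ-2-YbbR 12.5 uM (final); 50 mM Hepes pH 7.6, 10 mM MgCl2, 0.01% NP-40, 0.01% BSA; read 525/598 nm at 0 and 30 min.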
gsp antag = qHTS for Antagonists of gsp, the Etiologic Mutation Responsible for Fibrous Dysplasia/McCune-Albright Syndrome: qHTS; actives 0.4% (n = 340,000); Potency, µM (highest dose often 76.9 µM), for inactives: at the highest dose activity change, negative = inhibition, actives largely listed as inhibitors; gsp-mutant cells, cAMP HTRF, 30 min; control for the full effect not named in the record; active = falling curve of any shape with a large fitted effect; inconclusive = falling curve, mostly with a smaller effect; inactive = flat or rising curve; cell line not stated here;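 further: intracellular cAMP measured with PDE inhibitor Ro 20-1724 present during compound exposure; potency means the concentration at half of the fitted maximal effect; on the % scale 0 is the no-effect control and ±100 the full control effect; nearly all actives have a fitted effect of over 65% in size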
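Measurement of cellular cAMP by homogeneous time-resolved fluorescence following a 30 min compound exposure at 37C. The PDE inhibitor […] was present throughout; the assay buffer was DPBS with 0.05% BSA and 0.005% Tween 20.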
ClpP mod = qHTS Assay for Activators of ClpP. ATP-dependent Clp protease proteolytic subunit (Bacillus subtilis (strain 168)), P80244. purified B. subtilis ClpP, FRET peptide cleavage, 20 min. Potency, µM (doses to about 57.5 µM), for the others: top-dose activity change, negative = active. actives 1.9% (n = 340,000). AID 651965, 2013; active = well fitted falling curve with a large enough effect; inconclusive = small, poorly fitted or top-dose-only effect; inactive = no such curve, though single readings can be large or run the other way; further: potency means the concentration at half of the fitted maximal effect; the source files actives as falling curves though it sought activators and does not explain the sign; nearly all actives have a fitted effect of over 65% in size; many hits overshoot -100%
Target sequence (P80244 whole entry, looked up): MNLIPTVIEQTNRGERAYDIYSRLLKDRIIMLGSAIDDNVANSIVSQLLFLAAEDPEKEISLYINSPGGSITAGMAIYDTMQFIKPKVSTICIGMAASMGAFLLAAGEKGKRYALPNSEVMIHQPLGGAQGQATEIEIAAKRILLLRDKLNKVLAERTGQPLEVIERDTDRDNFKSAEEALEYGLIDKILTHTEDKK
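Purified B. subtilis ClpP, 10 microg/mL final in Tris/HCl pH8 with KCl, BSA, glycerol and Tween-20, cleaved an Abz/nitrotyrosine-quenched decapeptide. Fluorescence (ex 320, em 430) was read at 0 and 20 min at room temperature. Delta was normalized to 5.8 microM ADEP and DMSO/no-enzyme controls.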
gsp agonist = qHTS for Agonist of gsp, the Etiologic Mutation Responsible for Fibrous Dysplasia/McCune-Albright Syndrome: qHTS | AID 624287, 2012 | Potency, µM (titrated, usually from 76.9 µM), for inactives: at the top dose activation (cAMP increase), actives largely listed as activators | actives 0.13% (n = 340,000) | gsp mutant cells, cAMP HTRF, 30 min; control for the full effect not named in the record; active = well fitted activation curve with a large enough effect; inconclusive = small, poorly fitted or top-dose-only effect, or another doubt; inactive = no such curve, though single readings can be large or run the other way; cell line not stated here;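 further: phosphodiesterase inhibitor Ro 20-1724 added with compounds to block cAMP breakdown; potency means the concentration at half of the fitted maximal effect; nearly all actives have a fitted effect of over 60% in size; about a fifth of the inactives were tested at one dose only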
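Cells in DMEM/10% FBS with G418 were pretreated with compounds in DMSO plus […] (300 uM stock) for 30 min at 37C. cAMP was measured by HTRF (cAMP-d2 plus anti-cAMP antibody-K) after 30 min at room temperature.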
The depositor's hits bear a star; ? = inconclusive; / = not tested or not shown; & = joins results of further samples; [ ] = dose if it differs, or a comment.

Order of results – Menin-MLL FL inh, D2 ag, PINK1 modulator, Sfp inh, gsp antag, ClpP mod, gsp agonist
CC(C)Oc1cccc(C(=O)Nc2ccc(NC(=O)c3ccco3)cc2)c1
 : -0.6, -0.4, 16.6%, -5.9%, -6.9%, 6.0%, -1.8%
COCc1cc(C)nc(OCC(=O)N/N=C/c2ccc(-c3cc([N+](=O)[O-])ccc3C)o2)c1C#N
 : 1.5, 1.8, -1.6%, -13.4%, -1.9%, -10.0%, -1.9%
COc1ccccc1/C=C/C(=O)NC(=S)N1CCN(C)CC1
 : /, 1.3, -0.5%, 15.5%, -5.2%, -1.2%, 9.4%
O=C(Nc1ccc(Cl)c(Cl)c1)c1ccc(Cn2cc(Cl)cn2)cc1
 : -1.1, -7.0, ?, ?, ?, -6.0%, -27.2%
CCc1nc2c(OCc3ccccc3C(=O)OC)cccn2c1N(C)C(=O)c1ccncc1
 : /, -0.3, 0.4%, /, /, -0.1%, /
CCCCCn1c(=O)c(Cc2ccccc2)c(O)c2ccccc21
 : 2.3, -5.0, -1.3%[38.3 µM], 17.9%, -3.4%, 14.1µM*, 1.8%
COc1ccc(C(C)(O)c2nc(-c3cccc(C#N)c3)cs2)cc1 (centres undefined)
 : /, 5.2, 2.2%, /, /, -0.6%, /
CCS(=O)(=O)c1cc([N+](=O)[O-])c(Sc2ccccc2N)s1
 : 1.9, -0.1, 2.4%, 3.98µM*, -6.8%, 1.9%, -9.1%[15.4 µM]
O=[N+]([O-])c1cccc(S(=O)(=O)Nc2ccccn2)c1
 : /, -0.3, 1.3%, /, /, 0.8%, -54.6%[inhibitor]
O=C1c2cc([N+](=O)[O-])ccc2-c2ncccc21
 : -0.3, 8.3, -0.5%, 1.2%, 1.3%, -2.6%, 2.2%

The list continues:
Order of results – Menin-MLL FL inh, D2 ag, PINK1 modulator, Sfp inh, gsp antag, ClpP mod, gsp agonist
c1ccc2c(-c3nn4nnnc4c4ccccc34)cccc2c1
 : 6.1, 0.0, 2.5%, -9.7%, -22.7%, 28.6%, -19.0%
O=C1NC(=O)C(Cc2ccccc2)(c2ccccc2)N1 (centres undefined)
 : /, 1.8, 2.1%, /, 10.4%, /, -24.7%
CC(NC(=S)NC(=O)c1ccccc1Br)c1ccccc1 (centres undefined)
 : -0.5, 0.3, 0.0%, ?, -9.8%, 0.2%, -32.4%[inhibitor]
COc1ccc(NC(=O)c2cc(-c3ccccc3)oc2C)cc1
 : 3.7, 0.1, 0.3%, -16.4%, -7.0%, -4.8%, 2.7%
CN(CC(=O)Nc1cccc(F)c1)C(=O)c1ccc2c(c1)OCCO2
 : /, -5.4, 0.0%, /, 8.8%, 2.5%, -5.8%[15.4 µM]
O=C(O)c1cccc(Oc2ccc(C(=O)O)c([N+](=O)[O-])c2)c1
 : /, -5.4, -5.2%, /, 14.4%, 1.2%, -38.1%[inhibitor]
Cc1ccccc1OCCOC(=O)c1c(-c2ccccc2)noc1C
 : -5.0, -5.1, 4.0%, 3.0%, 4.8%, /, 16.8%[15.4 µM]
CCCN1CCN(c2ccc([N+](=O)[O-])cc2C#N)CC1
 : 1.6, -0.8, -0.9%, 16.6%, 5.8%, 2.0%, 24.1%
COc1cc(C(=O)NCc2ccncc2)cc(Br)c1OCc1ccccc1
 : -3.0, -2.3, 2.0%, 4.4%, ?, /, -2.3%[15.4 µM]
CC1=C(CC/C(C)=N/NC(N)=S)C(C)(C)CCC1
 : 6.8, -1.9, -0.7%[38.3 µM], 44.7µM*, 6.4%, -1.0%, 0.3%

Next results.
Order of results – Menin-MLL FL inh, D2 ag, PINK1 modulator, Sfp inh, gsp antag, ClpP mod, gsp agonist
Cn1c(/C=N/n2cnnc2)nc2ccccc21
 : 2.2, -0.4, /, 1.9%, 7.1%, 14.1µM*, 29.7%
O=C1C(=O)N(CCN2CCOCC2)C(c2ccncc2)/C1=C(/O)c1ccc2c(c1)OCO2 (centres undefined)
 : -0.5, 0.2, -2.6%, -19.3%, 10.5%, -3.4%, 4.0%
CCOC(=O)[C@@H]1CSCCS(=O)(=O)N1Cc1ccccc1Br
 : /, -0.4, 0.1%, /, -2.4%, -2.7%, /
COc1ccc(NC(=S)NCC2CCCO2)c(C)c1 (centres undefined)
 : 2.0, -1.1, 8.4%, 11.1%, 6.4%, -3.2%, -9.1%
O=C(/C=C/c1ccccc1)NCCSCc1ccccc1
 : 0.0, 2.5, -0.8%, ?, -8.9%, 0.8%, -80.8%[inhibitor]
Cc1nc([N+](=O)[O-])cn1CC(=O)Nc1ccc2c(c1)OCO2
 : -0.8, -0.6, 0.2%, 15.0%, -5.5%, -0.4%, -14.3%
COCCN1C2=C(COC(C)(C)C2)C(=S)NC1c1ccccc1 (centres undefined)
 : 4.0, -9.0, 0.1%, -22.5%, 16.1%, 1.2%, -11.8%[15.4 µM]
C/C(=N\N1CCN(c2ccc(Cl)cc2)CC1)c1cccs1
 : 1.0, 0.5, -0.1%, 1.9%, 11.8%, -1.7%, -30.8%[inhibitor]
CCCCOc1ccc(/C=C/C(=O)OCC(=O)NC(=O)NCC(C)C)cc1OCC
 : 2.2, -4.0, 19.5%, -7.0%, 10.3%, 0.7%, 8.3%
O=S(=O)(N[C@H]1C[C@@H](NS(=O)(=O)OCC(Cl)(Cl)Cl)C2CCCCC21)OCC(Cl)(Cl)Cl (some centres undefined)
 : 0.3, 2.3, ?, -5.9%, -6.2%, 2.7%, ?

2 compounds picked at random from those above:
Order of results – Menin-MLL FL inh, D2 ag, PINK1 modulator, Sfp inh, gsp antag, ClpP mod, gsp agonist
CCCCOc1ccc(/C=C/C(=O)OCC(=O)NC(=O)NCC(C)C)cc1OCC
 : 2.2, -4.0, 19.5%, -7.0%, 10.3%, 0.7%, 8.3%
COc1ccc(NC(=S)NCC2CCCO2)c(C)c1 (centres undefined)
 : 2.0, -1.1, 8.4%, 11.1%, 6.4%, -3.2%, -9.1%

Other entries:
Order of results – Menin-MLL FL inh, D2 ag, PINK1 modulator, Sfp inh, gsp antag, ClpP mod, gsp agonist
Cn1ccnc1C(O)c1ccccc1 (centres undefined)
 : 0.4, -1.9, -0.8%, -10.6%, 23.4%, /, -19.4%[15.4 µM]
CN(CC(=O)Nc1ccc(F)cc1)CC(=O)Nc1ccc(Cl)c(S(=O)(=O)N2CCOCC2)c1
 : 2.2, -0.8, 9.9%, -9.0%, -14.1%, /, -4.4%[15.4 µM]
CCOC(=O)C1CCCN(C(=O)C(=O)Nc2ccc3nc4n(c(=O)c3c2)CCCCC4)C1 (centres undefined)
 : 1.4, -1.9, 0.5%, 9.5%, -3.1%, -2.7%, ?
COc1cc(C2CC(=O)Oc3c(C(CCN4CCCC(C)C4)c4ccc(N(C)C)cc4)c(OC)cc(OC)c32)cc(OC)c1OC (centres undefined)
 : -0.5&-0.3, 0.8, 3.3%, -18.3%&-5.6%, -0.2%, -4.4%, /
O=c1oc2ccc(Br)cc2cc1-c1nc2ccccc2o1
 : ?, 4.2, -1.9%[38.3 µM], 18.8%, -0.6%, ?, 3.0%
COc1ccccc1Nc1nc2nonc2[nH]c1=O
 : -5.6, -3.5, 0.9%, ?, -31.0%, /, 0.7%[15.4 µM]
N/C(=N\OC(=O)COc1ccc(Cl)cc1Br)c1cccnc1
 : 0.1, 0.0, 6.9%, -8.6%, /, /, 2.7%[15.4 µM]
COc1ccc(C(=O)N/N=C(\N)c2cc3ccccc3oc2=O)cc1
 : -9.5, 2.0, 19.6%, 5.8%, 6.5%, /, 24.7%
CC(=O)c1cccc(NC(=O)CN2CCc3cc4c(cc3C2C)OCCCO4)c1 (centres undefined)
 : -3.9, -1.2, -0.7%, -3.8%, -13.8%, -3.7%, 27.3%
Oc1ccc(C[C@H]2CN([C@@H](Cc3cccc(O)c3)CN3CCC[C@@H]3CN3C(=S)NC[C@@H]3Cc3ccccc3)C(=S)N2CC2CCCCC2)cc1
 : /, -2.4, 7.4%, /, /, -0.1%, /

Following part:
Order of results – Menin-MLL FL inh, D2 ag, PINK1 modulator, Sfp inh, gsp antag, ClpP mod, gsp agonist
Cn1c(CC(=O)Nc2ccccc2F)nnc1SCC(=O)Nc1nccs1
 : 0.1, -4.4, -2.5%, -3.1%, 5.1%, /, -2.1%
COC(=O)c1cccc(NC(=O)CCN2C(=O)NC(C)(C)C2=O)c1
 : /, -3.9, 0.2%, /, /, 0.0%, -2.7%
C[C@H](CO)N1C[C@H](C)[C@@H](CN(C)Cc2ccc3c(c2)OCO3)OCc2cnnn2CCCC1=O
 : /, -5.6, 0.1%, /, /, -0.9%, 8.6%
Cc1ccccc1S(=O)(=O)/N=C(/c1ccccc1)N(C)C
 : /, -0.8, 2.1%, 7.3%, 3.5%, -0.2%, 1.1%
O=C1c2cc(O)c(O)cc2OC(c2ccc(O)c(O)c2)C1O (centres undefined)
 : /, 1.4, -3.1%, /, -4.4%, 0.0%, -3.2%
CC(=O)N1CCc2c(sc(NC(=O)CN3C(=O)c4ccccc4C3=O)c2C(N)=O)C1
 : -1.5, -1.2, -0.5%, -3.0%, -0.5%, -3.1%, -16.7%
CCc1cc(-c2n[nH]c(=S)n2-c2ccccc2C)cs1
 : -0.9, -1.0, 3.3%[38.3 µM], 14.8%, -25.1%, ?, 21.0%
O=C(CCNC(=O)c1ccccc1)NCCc1ccc(Cl)cc1
 : -3.4, 0.2, 0.2%, 12.1%, -2.2%, /, 3.0%
CC(=O)Nc1sc2c(c1C(c1ccccc1Cl)N1CCN(CCO)CC1)CCCC2 (centres undefined)
 : -2.1, -0.2, 4.0%, 2.6%, 3.2%, 0.9%, 16.6%
